Source: PubChem
Ba CapD inh = blocks the Bacillus anthracis CapD enzyme | purified CapD enzyme, fluorescence intensity read-out; hits give low values; some hits fall short of the stated cut | z-score (no concentration beside the values) | 140,000 tested, 0.23% active | AID 492967;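 active = z-score under -4 in either of two replicates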;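 note: stock transfer was 100 nL into about 40 µL; score is relative to mean and spread of the plate; one replicate is shown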
AID504770 = growth inhibitors of E. coli YBA685 in a screen for V. cholerae RctB (chromosome II replication) inhibitors. E. coli YBA685 rctB-dependent plasmid, OD600 growth, 3 h; hits give low values. z-score (test concentration not listed). 130,000 tested, 0.27% active. AID 504770;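 active = z-score under -2 on both plates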;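 note: wells of about 30 µL received 100 nL stock; score is relative to mean and SD of the test wells; the first replicate is given; strong numbers were not always called active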
Starred values were filed as active, the others as inactive; nt = not tested or not shown.

structure	Ba CapD inh	AID504770
CC1=NN(c2ccc(C(=O)NC(C(=O)OCc3ccccc3)C(C)OCc3ccccc3)cc2)C(=O)C1 (configuration not stated)	-0.34	nt
O=C(NCc1cccnc1)Nc1c[nH]c2ccccc2c1=O	104	-0.9
Cc1occc1C(=O)Nc1ccc(C(=O)N2CCCCC2)cc1	-0.59	-0.35
CN(C)Cc1ccccc1CNC(=O)c1ccc(N(C)C)cc1	nt	0.05
C=CCNC(=O)C(C)Sc1ccc(C)cc1 (configuration not stated)	-0.43	1.6
O=C(CC1(O)C(=O)N(Cc2ccc(Cl)cc2)c2ccccc21)c1ccc2c3c(cccc13)CC2 (configuration not stated)	-0.14	nt
O=C(CC1Nc2c3ccccc3nc(=S)n2C1=O)NCc1ccccc1 (configuration not stated)	-0.23	-0.3
Cc1ccc2cccc(O)c2n1	-0.33	-1
CCCS(=O)(=O)N1CCN(c2cccc(Cl)c2)CC1	-0.57	-1.6
Cc1ccc(NC(=O)Cn2cnc3sc(C(=O)N4CCC(C)CC4)c(C)c3c2=O)cc1Cl	-0.17	-0.4
Cc1cnc(C(=O)N(CC(C)C)c2c(N)n(CC(C)C)c(=O)[nH]c2=O)cn1	nt	-0.4
Cc1ccc(-c2n[nH]c3c2C(c2ccc(C)cc2)N(c2ccc(F)cc2)C3=O)cc1 (configuration not stated)	-0.39	nt
CCOC(=O)c1csc(CS(=O)(=O)c2ccc(Cl)cc2)n1	0.65	0.8
Cc1ccc(S(=O)(=O)Nn2c(SCC(=O)NCc3ccccc3)nc3ccccc3c2=O)cc1	0.44	nt
COc1ccc(OC)c(NC(=O)c2cc3ccccn3n2)c1	9.9	-0.4
CN(C)c1cc(C(=O)N2CCN(C(=O)c3ccc(C(C)(C)C)cc3)CC2)nc(N(C)C)n1	1.8	nt
CCNc1sc(S(C)(=O)=O)nc1S(=O)(=O)c1ccc(Cl)cc1	-0.12	-0.8
COc1ccc(CN=Cc2ccnc(SCc3ccc(Cl)cc3Cl)n2)cc1	11	1
C=CCSc1nc(C)cc(C(=O)OCC)c1C#N	1.6	0.15
Cc1ccccc1Cn1cc(NC(=O)c2cc3ccccc3oc2=O)cn1	-0.09	-0.6
CCCCN(CC)C(=O)Cn1c(=O)n(Cc2ccccc2Cl)c(=O)c2cc(OC)c(OC)cc21	-1.2	0.9
COCCNC(=O)c1nn2c(C(F)(F)F)cc(-c3ccc(OC)c(OC)c3)nc2c1Cl	-0.15	nt
CC1=C(C(=O)Nc2ccccc2)C(c2cccnc2)n2ncnc2N1 (configuration not stated)	-0.64	nt
Cn1c2ccccc2n2c(=O)cc(-c3ccccc3)c(C#N)c12	28	0.55
O=C(OCc1nnc(-c2ccccc2)o1)C1(c2ccc(Cl)cc2)CCCC1	nt	0.45
O=C(CSc1c2c(nc3ccccc13)CCC2)Nc1ccccc1F	-0.24	-1.1
COc1ccc(OC)c(S(=O)(=O)Nc2cccc(-c3cn4c(n3)SCC4)c2)c1	nt	-0.95
Clc1ccc(C2CC(c3cccs3)=Nc3ccccc3S2)c(Cl)c1 (configuration not stated)	-0.27	nt
CC(C)[C@H](NC(N)=O)C(=O)Nc1ccc(Oc2ccccc2)cc1	nt	-0.75
Cc1ccc(CS(=O)(=O)Cc2ccc(C(=O)O)o2)cc1	nt	-0.25
CCc1cc(=O)oc2cc(OCC(=O)N3CCCc4ccccc43)ccc12	1.4	1.1
O=S(=O)(NCC(c1cccs1)N1CCc2ccccc21)c1ccccc1 (configuration not stated)	nt	-0.35
O=C(Nc1ccccc1)Oc1cccc(N2CCOCC2)c1	-0.7	-0.3
Cc1cc(-c2nc(-c3ccnn3S(=O)(=O)c3cccc(C(F)(F)F)c3)cs2)no1	9.5	-0.15
Cc1cc(N2C(=O)NC(=O)/C(=C/c3ccccc3OCC#N)C2=O)ccc1Br	0.43	nt
O=C(NCCN1CCOCC1)c1ccc2c(=O)n3c(nc2c1)CCCCC3	0.91	-0.05
Cc1ccc(C)c(SCC(=O)OCC(=O)c2ccco2)c1	nt	-0.45
COc1ccc2c(COC(=O)c3cncc(Br)c3)cc(=O)oc2c1	nt	-1.1
COc1ccc2oc(C)c(C(O)c3cc4ccccc4o3)c2c1 (configuration not stated)	2.4	-0.55
CCCc1ccc(-c2ccc(/C=C/C(=O)O)cc2)nc1	nt	-0.4
CC(CC(=O)Nc1nc2ccccc2[nH]1)c1ccccc1 (configuration not stated)	nt	-1.1
COc1ccc(N(C(C)C(=O)Nc2ccc(-c3nc4ccc(C)cc4s3)cc2)S(C)(=O)=O)cc1 (configuration not stated)	3.2	nt
Clc1cccc(NCc2ccco2)c1	-0.07	-0.65
O=C(N/N=C/c1ccc(O)c([N+](=O)[O-])c1)c1csc(CS(=O)(=O)Cc2ccco2)n1	-3.5	nt
CC(C)C(NC(=O)Cc1ccccc1)C(=O)N1CCN(S(=O)(=O)c2cccc(Cl)c2)CC1 (configuration not stated)	nt	-0.55
COc1ccc(CNc2oc(C)nc2C#N)cc1	nt	0
Cn1c(=N)n(CC(O)c2ccco2)c2ccccc21 (configuration not stated)	0.52	-0.55
O=C1C=CC(=O)N1c1cccc2ccccc12	2.6	-0.6
CCc1cccc2c(C(=O)Cn3nc(C)c(C)c(C#N)c3=O)c[nH]c12	nt	-0.1
NC(=O)c1cc2ccccc2o/c1=N\NC(=O)c1ccccc1O	0.2	-0.15
N/C(COc1ccc2nonc2c1)=N\OC(=O)c1ccc(Cl)cc1	0.23	1.4
COc1ccc2oc(=O)c(C(=O)OC3CCCCC3)cc2c1	nt	-0.05
CC(C)(NCc1ccccc1Cl)C(=O)O	nt	-0.85
c1ccc(CCSc2ncnc3nc[nH]c23)cc1	nt	-0.6
O=c1oc2ccccc2c2c1ncn2CCCN1CCOCC1	-0.21	-0.75
CC(=O)c1ccc([N+](=O)[O-])cc1Cl	0.53	nt
CCNS(=O)(=O)c1cc(-c2nnc(Nc3ccc(F)cc3)c3ccccc23)ccc1C	-0.53	-0.15
O=C(COC(=O)c1nc(-c2ccccc2)n(-c2ccccc2)n1)NCC1CCCO1 (configuration not stated)	nt	0.15
COc1cccc(CC(N)=O)c1	-0.39	nt
COC(=O)C(=NNc1cccc(Cl)c1)C(=O)OC	nt	-0.3

An excerpt of these results, with two lines to a compound.
Each structure is followed by: Ba CapD inh, AID504770
> Cc1ccc(C)c(SCC(=O)OCC(=O)c2ccco2)c1
    nt, -0.45
> CC(CC(=O)Nc1nc2ccccc2[nH]1)c1ccccc1 (configuration not stated)
    nt, -1.1

Continued:
structure	Ba CapD inh	AID504770
CCc1c(C(=O)NC2CCCC2)csc1C	0.59	-0.15
CCCCOC(=O)c1sc2scc(C)c2c1C	-0.56	-0.45
CCCc1oc2c(cc(NS(=O)(=O)c3ccc(CC)cc3)c3ccccc32)c1C(=O)OCC	3.7	0.3
COc1ccc2sc(N3C(=O)C4CC=C(C)CC4C3=O)nc2c1 (configuration not stated)	nt	-0.45
O=C(NCc1ccccc1Cl)C1CCN(c2nc3ccccc3o2)CC1	-0.48	0.85
CCCCc1nnc(NC(=O)Cn2c(COc3ccccc3)nc3ccccc32)s1	nt	0.3
c1cnc2c(c1)NC1(CCCCC1)N2	nt	-0.95
Cc1ccccc1N1CCn2c1nc1c2c(=O)n(C)c(=O)n1C	0.85	0.35
CC(=O)N(C)c1ccc(F)cc1F	0.98	-0.95
O=c1c2ccccc2cnn1-c1ccc(F)cc1	0.085	nt
CN(C)c1ccc(NC(=O)CC(CC(=O)O)c2ccccc2)cc1 (configuration not stated)	-0.26	2.8
Cn1c(C(C)(C)C)nc(N)nc1=O	0.055	nt
CCC(=O)NCc1nc2ccccc2n1C	-0.16	-0.9
COc1ccc(Cn2nnnc2C(c2ccccc2)N2CCC(C)CC2)cc1 (configuration not stated)	nt	-0.2
NS(=O)(=O)c1ccc(CCNC(=O)CSc2nc3ccccc3c(=O)n2CCCC(=O)NCC2CCCO2)cc1 (configuration not stated)	0.89	nt
Cc1nnc(NC(=O)CSc2cn(Cc3ccccc3)c3ccccc23)s1	-0.48	0.35
NC(=O)c1ccsc1NC(=O)[C@H](Cc1ccccc1)NC(=O)c1ccco1	nt	1.4
CC(C)(C)c1ccc(Cn2cnc3sc4c(c3c2=O)CCCC4)cc1	-0.08	nt
O=C1Nc2cc(C(=O)N3CCCC3)ccc2NC1CS(=O)(=O)Cc1cccc(Br)c1 (configuration not stated)	14	-0.5
Cc1cc(=O)oc2c(CN(C)C3CCCCC3)c(O)ccc12	78	-0.85

Next section; the last five above are carried over.
structure	Ba CapD inh	AID504770
Cc1nnc(NC(=O)CSc2cn(Cc3ccccc3)c3ccccc23)s1	-0.48	0.35
NC(=O)c1ccsc1NC(=O)[C@H](Cc1ccccc1)NC(=O)c1ccco1	nt	1.4
CC(C)(C)c1ccc(Cn2cnc3sc4c(c3c2=O)CCCC4)cc1	-0.08	nt
O=C1Nc2cc(C(=O)N3CCCC3)ccc2NC1CS(=O)(=O)Cc1cccc(Br)c1 (configuration not stated)	14	-0.5
Cc1cc(=O)oc2c(CN(C)C3CCCCC3)c(O)ccc12	78	-0.85
O=c1cc(O)c2sc3nc(-c4cccnc4)c4c(c3c2[nH]1)CCCC4	12	-0.65
O=C(COC(=O)c1cc(=O)[nH]c2ccccc12)c1ccccc1	nt	-0.55
CC1=CC(C)(C)N(S(=O)(=O)c2ccc(C)cc2)c2ccccc21	-0.05	-0.1
COc1ccc(N2C(=O)C3C4C=CC(C3C2=O)C2C(=O)N(c3ccc(OC)cc3)C(=O)C42)cc1 (configuration not stated)	0.03	nt
Cc1cc(N2Cc3ccccc3C2)ccc1/C=C1/C(=O)NC(=O)N(C2CCCCC2)C1=O	-0.75	0.15
CCOC(=O)N1CCN(C(=O)CSc2ccc(-c3ccccc3)nn2)CC1	nt	-0.45
N#Cc1cn(Cc2ccccc2)c(=O)[nH]c1=O	0.2	0.65
C=CCOc1ccc(Br)cc1/C=N/O	-0.025	0.4
CCOC(=O)c1c(/N=C/N(C)C)sc(C)c1C	nt	-0.1
Cc1cc(C)n(-c2nnc(N3CCN(c4ccc(F)cc4)CC3)nn2)n1	0.38	nt
Cc1nc2ccccc2n1CCOc1ccc(Cl)cc1	-0.005	-0.05
CC1(C)CC(=O)C(C=NCCN2CCN(C(=O)Nc3ccc(Cl)c(Cl)c3)CC2)=C(O)C1	27	-1
CC(C)(C)c1ccc(COC(=O)NNC(=O)c2snnc2-c2ccccc2)cc1	-1.5	nt
COC(=O)c1c(C)oc(C)c1S(=O)(=O)NCCSCc1c(F)cccc1Cl	0.25	-0.1
COc1ccc(Br)cc1CN(C)CN1C(=O)C2CC=CCC2C1=O (configuration not stated)	nt	-1.2
C1CN(C2OCCOC2N2CCOCC2)CCO1 (configuration not stated)	nt	0.15
CC(=O)Nc1ccc(C(=O)Nc2ccc(OCC(=O)O)cc2)cc1	-0.32	0.85
CC(C)Cc1nnc(NC(=O)CCn2[nH]c(=O)ccc2=O)s1	nt	0.15
Cc1ccc(S(=O)(=O)c2cnc(-c3cccnc3)nc2-c2ccncc2)cc1	-0.02	nt
CC12CCC(=O)N1C(C(=O)NCCN1C(=O)S/C(=C\c3ccccc3)C1=O)CS2 (configuration not stated)	nt	0.4
CC(C)NC(=O)c1cc(-c2cccs2)on1	-0.11	-0.5
Clc1ccc(-c2csc(-c3[nH]ncc3Br)n2)cc1	-0.26	0.25
COc1ccc(OC)c(Nc2nc3nonc3n3c(C)nnc23)c1	-0.33	nt
O=C(COC(=O)c1ccc(-n2cnnn2)cc1)Nc1ccccc1C(=O)NC1CC1	nt	-0.05
O=C(NCCc1ccccc1)c1ccccc1O	18	-0.05
N#Cc1cccc(CSc2ncnc(N)n2)c1	-0.47	-1
CCC(=O)N1CCc2cc(Br)cc(S(=O)(=O)N3CCCCC3)c21	-0.4	0.4
COC(=O)c1ccc(OP2(=O)COc3ccccc3OC2)cc1	47	0.2
O=C(NC(=O)c1ccccc1)c1ccccc1	0.74	-0.8
Cc1c(C2=CCN(S(=O)(=O)c3ccc(Cl)s3)CC2)c2ccccc2n1CC(=O)N1CCCC1	-1.1	0.1
O=C(Cn1cccc1C(=O)c1ccccc1)NCCCN1CCCC1	-0.43	0.25
c1cncc(C2OCC3(CO2)COC(c2cccnc2)OC3)c1 (configuration not stated)	0.18	-0.4
CNc1ncc(Br)nc1Br	0.48	1.2
O=C1C=C(NCCOC23CC4CC(CC(C4)C2)C3)C2(CCCCC2)O1	0.58	0.25
Cc1oc(-c2ccccc2)nc1C(=O)OCC(=O)C12CC3CC(CC(C3)C1)C2	nt	-1.1
CCC(c1nnc(SCc2nc3sc4c(c3c(=O)[nH]2)CCC4)n1Cc1ccccc1)N(C)C (configuration not stated)	nt	1.3
Cc1nn(Cc2nc(C(C)(C)C)cs2)c(C)c1Br	0.66	-0.95
CS(=O)(=O)N1CCN(c2ccccc2F)CC1	nt	-0.9
CC1=NN(c2ccc3c(S(=O)(=O)O)cc(S(=O)(=O)O)cc3c2)C(=O)C1	-6*	nt
Cc1nn(CCCC(=O)NC(C)C)c(=O)c2c1sc1ccccc12	8.9	-0.9
COc1ccc(S(=O)(=O)NCc2cn3cccc(C)c3n2)cc1OC	nt	-0.4
COc1ccc(CCNC(=O)CSc2nc(-c3cccs3)nc3c2c(=O)n(C)c(=O)n3C)cc1OC	-1.1	1.4
c1ccc(Nc2c(-c3ccc(N4CCOCC4)cc3)nc3cnccn23)cc1	0.79	-0.55
CCOc1ccccc1COC(=O)N1CCN(c2cc(C(F)(F)F)ccn2)CC1	94	nt
